rRNA inh HTS: inhibits bacterial ribosomal RNA function over humanized ribosomes. actives 1.6% (n = 350,000). E. coli WT GFP vs humanized-ribosome RFP mutants, fluorescence, 24 h; active compounds read low; DMSO median 0, no signal -100. GFP signal change (wild-type ribosome), % (test concentration not listed);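 active = significant combined selectivity score with lowered wild-type GFP, culture density cut under 30%, mutant RFP and density less affected; inactive = any of these conditions unmet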; note: one replicate is shown; some compounds called inactive have numbers as strong as hits
FGF22 binding: binders of recombinant human FGF22 by thermal shift | Q9HCT0 | SYPRO orange fluorescence; percent of sucrose octasulfate shift, DMSO zero | calls only at 9.99 µM | actives 1.5% (n = 340,000) | AID 651658;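 active = melting point raised past a set limit in the mean and every replicate; inconclusive = no clear call; three in four hits are not shown here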
Target sequence (Q9HCT0 whole entry, looked up): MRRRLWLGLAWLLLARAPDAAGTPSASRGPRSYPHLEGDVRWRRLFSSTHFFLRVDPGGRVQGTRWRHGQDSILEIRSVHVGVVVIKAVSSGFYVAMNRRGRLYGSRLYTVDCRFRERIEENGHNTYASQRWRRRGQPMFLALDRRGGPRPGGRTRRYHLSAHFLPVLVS
Ecoli growth: blocks Escherichia coli growth | OD600, 23 h; active compounds read low | OD600 absorbance (test concentration not listed) | actives 0.21% (n = 330,000) | AID 1053175;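 active = OD600 absorbance below the run mean of sample wells minus 3.6 SD, in any replicate, cut at about 0.56 in these data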;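 note: stock transfer was 300 nL into about 60 µL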
Bfl-1 A1 inh: inhibitors of the anti-apoptotic protein A1, read as caspase activation. AID 2462. MEF A1-2A-BIM cells, Caspase-Glo 3/7 luminescence, 3 h; percent of clofoctol response, vehicle zero. caspase activation, % (test concentration not listed). actives 0.066% (n = 330,000);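 active = over half of replicate activation scores above 10%, or exactly half above 10 with the replicate mean above 10; inconclusive = replicate mean below 10 yet half the replicates above 10; inactive = over half of replicates below 10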;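 note: wells of about 30 µL received 50 nL stock; many hits fall short of the cut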
MLL AF4-AF9 inh: inhibitors of human MLL-AF4/AF9 interaction; P42568; AlphaScreen, biotin-AF4 peptide binding to FLAG-AF9; inhibition, % at 10 µM; actives 0.47% (n = 350,000); AID 651704;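 active = every replicate reaching a set inhibition limit, whatever the replicate mean, cut at about 25% in these data; inconclusive = mean inhibition reaches that limit but some replicates miss it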;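 note: 0% = plate neutral control median and 100% = total signal loss; the record names both 10 and 1 µM as test concentration; the first replicate is given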
Target sequence (P42568 whole entry, looked up): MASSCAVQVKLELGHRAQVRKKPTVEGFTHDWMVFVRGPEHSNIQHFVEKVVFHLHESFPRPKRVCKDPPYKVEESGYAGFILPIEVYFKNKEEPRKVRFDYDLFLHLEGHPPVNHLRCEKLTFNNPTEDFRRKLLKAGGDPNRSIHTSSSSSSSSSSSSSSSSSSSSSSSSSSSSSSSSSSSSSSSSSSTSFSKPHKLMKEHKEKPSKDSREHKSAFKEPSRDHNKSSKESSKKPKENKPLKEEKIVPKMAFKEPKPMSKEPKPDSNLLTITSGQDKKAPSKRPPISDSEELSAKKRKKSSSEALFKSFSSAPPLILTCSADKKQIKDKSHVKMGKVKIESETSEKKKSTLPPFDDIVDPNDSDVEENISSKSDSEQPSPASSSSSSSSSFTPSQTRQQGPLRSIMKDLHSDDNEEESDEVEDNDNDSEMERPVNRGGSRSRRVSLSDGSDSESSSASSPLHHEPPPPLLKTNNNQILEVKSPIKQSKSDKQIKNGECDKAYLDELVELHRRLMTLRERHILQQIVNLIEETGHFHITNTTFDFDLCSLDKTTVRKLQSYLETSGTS
UCH37 DUB inh: human UCH37 deubiquitinating enzyme inhibition; AID 588478; Q9Y5K5; actives 0.33% (n = 330,000); inhibition, % (test concentration not listed); purified proteasome/UCH37, Ub-AMC cleavage fluorescence;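 active = mean of two replicates above 20%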;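 note: 0% = compound-free wells with enzyme and 100% = wells lacking proteasome; stock transfer was 100 nL into about 20 µL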
Target sequence (Q9Y5K5 whole entry, looked up): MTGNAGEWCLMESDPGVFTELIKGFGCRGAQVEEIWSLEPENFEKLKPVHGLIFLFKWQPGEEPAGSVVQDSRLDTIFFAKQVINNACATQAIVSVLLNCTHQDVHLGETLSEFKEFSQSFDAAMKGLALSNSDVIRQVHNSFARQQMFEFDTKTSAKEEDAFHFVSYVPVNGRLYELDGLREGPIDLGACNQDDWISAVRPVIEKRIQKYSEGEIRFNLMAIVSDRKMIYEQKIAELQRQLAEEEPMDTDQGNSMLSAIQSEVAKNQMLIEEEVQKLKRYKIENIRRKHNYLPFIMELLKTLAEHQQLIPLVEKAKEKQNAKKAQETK
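assay system = human UCH37 enzyme supplied as purified proteasome complex | amount = proteasome at 0.15 nM in the dispensed enzyme solution | schedule = 30 min compound-proteasome preincubation then 25 min substrate reaction, room temperature | measured by = fluorescence, ex 355 nm, em 460 nm | benchmarks = no-proteasome wells (full inhibition) and compound-free wells (no inhibition)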
T cruzi repl: T. cruzi replication inhibition | actives 1.4% (n = 300,000) | T. cruzi beta-gal in NIH3T3, luminescence, 90 h | inhibition, % (no concentration beside the values) | AID 1885;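 active = mean inhibition across valid replicates above about 55%, limit read from the data; inconclusive = mean below that limit but half or more replicates reach it; inactive = mean below it, under half of replicates reach it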;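 note: signal also drops with host cell toxicity which is not excluded here; 0% = plate median of DMSO wells and 100% = zero luminescence signal; higher percent means less beta-gal luminescence so fewer parasites; stock transfer was 50 nL into about 50 µL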
Beta cell apopt: blocks beta cell apoptosis. INS-1E cytokine-induced death, ATP luminescence, 48 h; percent of positive-control rescue, neutral wells zero. protection from apoptosis, % (concentration not given with the values). actives 0.8% (n = 300,000);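 active = all replicates at 75% or more, or half of them and the mean; inconclusive = half reach 75% but not the mean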;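 note: 0% = cytokine-treated negative control wells and 100% = positive control rescue; higher means more ATP so stronger rescue from cytokine killing; wells of about 40 µL received 100 nL stock; the first replicate is given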
rRNA inh HTS OD600: recorded beside rRNA inh HTS, whose call it bears; OD600 change, %; measured here: OD600 growth;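 optical density of the mix in the first replicate; 0 = DMSO median and -100 = no signal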
rRNA inh HTS RFP: recorded beside rRNA inh HTS, whose call it bears; RFP signal change, %; measured here: RFP humanized mutant strains;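 first replicate; 0 = DMSO median and -100 = no signal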
* hit, by the source's call; i = inactive; ? = inconclusive; . = no result given. This is a subset; rates above refer to the full screens.

SMILES	rRNA inh HTS	rRNA inh HTS OD600	rRNA inh HTS RFP	FGF22 binding	Ecoli growth	Bfl-1 A1 inh	MLL AF4-AF9 inh	UCH37 DUB inh	T cruzi repl	Beta cell apopt
CC(CN1C(C)CCCC1C)OC(=O)c1ccccc1F (centres undefined)	8.4	16.7	-1.1	i	0.625	0.7	-3.1	1.0	3.2	-12.3
CCOC(=O)C1=C(C)N=C2c3ccccc3C(=O)C2C1c1ccc(C)cc1 (centres undefined)	.	.	.	.	0.701	-1.1	.	6.5	9.8	.
CCOC(=O)C1CCN(C(=O)CN(c2cccc(C(F)(F)F)c2)S(C)(=O)=O)CC1	.	.	.	.	0.693	1.0	.	1.1	1.7	-11.8
CN(C)S(=O)(=O)c1cccc(NC(=O)Cn2cc(C(F)(F)F)cc(Cl)c2=O)c1	7.8	9.6	1.0	i	0.689	-0.9	-2.4	-1.1	7.8	-0.1
CCOc1nc(Nc2ccccc2F)nc(OCC)n1	-0.8	1.2	-3.0	i	0.674	-1.0	-5.2	-0.3	-7.4	.
COc1ccc(Cc2nnc(SC(C)C(=O)Nc3ccc(C(N)=O)cc3)o2)cc1 (centres undefined)	9.0	12.7	3.7	i	0.701	0.6	?	-2.5	-20.5	.
Cc1ccc(NC(=O)Cc2ccsc2)cc1Cl	6.9	6.8	-10.4	i	0.631	1.3	-2.8	4.1	-6.7	-1.4
O=C(Nc1cccc(C(F)(F)F)c1)C12CC3CC(CC(C3)C1)C2	.	.	.	.	0.684	1.2	.	2.4	45.7	0.6
CCOC(=O)C1=CN(Cc2ccc(Br)cc2)S(=O)(=O)NC1C (centres undefined)	-48.5	-81.7	-15.4	i	0.665	.	-3.2	0.5	.	.
COc1ccc(C(=O)CCNc2ccc(C)c(Cl)c2)cc1	7.8	11.1	1.0	i	0.708	-1.3	4.8	4.2	-0.2	-1.0
COC(=O)[C@@]12CCCCN1[C@H](c1ccc(-c3ccc(F)cc3)c(OC)c1)[C@H]1C(=O)N(C)C(=O)[C@H]12	2.8	10.3	-11.8	i	.	-0.2	-0.2	0.3	.	5.8
COc1ccccc1NC(=O)Cc1coc2cc(C)ccc12	.	.	.	.	0.682	-0.2	.	-1.0	-5.9	.

Whole records from above:
Results for CN(C)S(=O)(=O)c1cccc(NC(=O)Cn2cc(C(F)(F)F)cc(Cl)c2=O)c1 = rRNA inh HTS: 7.8; rRNA inh HTS OD600: 9.6; rRNA inh HTS RFP: 1.0; FGF22 binding: i; Ecoli growth: 0.689; Bfl-1 A1 inh: -0.9; MLL AF4-AF9 inh: -2.4; UCH37 DUB inh: -1.1; T cruzi repl: 7.8; Beta cell apopt: -0.1
Results for CCOC(=O)C1CCN(C(=O)CN(c2cccc(C(F)(F)F)c2)S(C)(=O)=O)CC1 = rRNA inh HTS: .; rRNA inh HTS OD600: .; rRNA inh HTS RFP: .; FGF22 binding: .; Ecoli growth: 0.693; Bfl-1 A1 inh: 1.0; MLL AF4-AF9 inh: .; UCH37 DUB inh: 1.1; T cruzi repl: 1.7; Beta cell apopt: -11.8

Going on with the list:
SMILES	rRNA inh HTS	rRNA inh HTS OD600	rRNA inh HTS RFP	FGF22 binding	Ecoli growth	Bfl-1 A1 inh	MLL AF4-AF9 inh	UCH37 DUB inh	T cruzi repl	Beta cell apopt
Cc1c(C(=O)c2ccc(Br)cc2)c(=O)n(C)c(=O)n1C	10.8	6.6	6.9	i	0.7	0.3	-36.2	5.8	3.0	-1.1
O=C(COC(=O)C1CC1)Nc1ccc(Oc2ccccc2)cc1	.	.	.	.	0.643	0.9	.	1.2	-10.5	4.1
Cc1nc([N+](=O)[O-])cn1CC(=O)Nc1ccc([N+](=O)[O-])cc1	16.2	7.2	2.1	i	0.707	0.5	0.0	4.2	-2.5	-2.1
CCOC(=O)c1c(NC(=O)CSc2nnc(CNc3ccc(OC)cc3)n2C)sc(C)c1C	.	.	.	.	0.72	-0.2	.	4.2	26.8	6.8
CC(=O)N/C(=N/c1nc(C)cc(C)n1)Nc1cc(C)cc(C)c1	8.3	13.3	0.3	i	0.655	0.1	2.9	4.9	7.1	1.9
COc1ccc(NC(=O)CCCn2c(=O)c3sccc3n(Cc3ccc(C)cc3C)c2=O)cc1	.	.	.	.	0.674	-1.0	.	3.4	8.7	8.0
COc1cccc(CNC(=O)c2ccc(CS(=O)Cc3ccc(C)cc3)o2)c1 (centres undefined)	-49.8	-76.1	-12.7	i	0.693	-0.1	-1.4	1.4	3.0	-2.4
CCN(C(=O)CSc1nnc(-c2cccs2)o1)C1CCS(=O)(=O)C1 (centres undefined)	-0.6	10.2	-1.8	i	0.698	0.4	-4.5	3.2	-5.1	-1.4
COc1ccc(-c2cc(=O)[nH][nH]2)cc1OC	.	.	.	.	0.662	0.2	.	10.7	-13.7	-11.1
O=C(Nc1cc(C(=O)N2CCOCC2)cc(C(=O)N2CCOCC2)c1)c1cc(F)c(F)cc1Cl	10.3	7.6	4.3	i	0.666	0.1	4.9	3.1	-10.1	-1.9
O=C(NCc1ccccc1)N1CCN(c2ccc(Cl)c(Cl)c2)CC1	.	.	.	.	0.715	-0.5	.	-0.4	4.1	17.7
CCCC(C)C(=O)Nc1nc(C)c(-c2csc(Nc3cc(Cl)ccc3C)n2)s1 (centres undefined)	-3.2	-3.2	-3.3	i	0.633	-0.3	8.1	-0.7	25.1	22.8
CC(=O)NNc1ncnc2ccccc12	11.2	11.2	0.5	i	0.703	-0.5	-1.1	1.8	-5.1	-1.1
O=C(Nc1ccccc1OC(F)F)c1ccc(F)cc1	.	.	.	.	0.677	1.0	.	0.8	0.1	-7.4
CCN(CC)Cc1c(C(=O)N/N=C/c2ccco2)nnn1-c1nonc1N	3.6	10.9	0.4	i	.	-0.1	-3.7	.	.	-1.9
O=C(OCc1nc2ccc(Cl)cc2n1CCO)c1ccccc1C(=O)c1ccccc1	-2.7	2.7	-0.7	i	0.636	0.0	-1.3	5.4	-5.1	-9.3
Cn1cccc1Cc1nnc(SCC(=O)Nc2ccccc2F)n1-c1ccc(F)cc1	9.2	6.8	1.2	i	0.733	-1.1	5.0	0.5	-3.9	-4.9
COc1ccc2c(c1)O[C@@]1(CCCC[C@@H]1C)CC2=O	3.8	3.8	0.8	i	0.798	-0.5	1.4	2.9	26.9	-1.6
COc1ccc(CN2CCN(C(=O)c3ccccc3C(=O)c3ccccc3)CC2)cc1OC	-0.9	-0.3	-0.8	i	0.714	.	1.9	-1.6	.	.
COc1ccc(CC(=O)N2CCC3(CC2)NCCc2[nH]cnc23)cc1	18.3	10.3	2.8	i	0.687	0.1	1.1	3.1	4.4	-1.7
Cc1ccc(COC(=O)CN2C(=O)NC3(CCCCC3C)C2=O)cc1 (centres undefined)	0.9	9.6	0.5	.	0.663	.	0.7	3.8	.	.
Cn1cc(/C=C/C(=O)N2CCCC(C(=O)c3ccc(C(F)(F)F)cc3)C2)cn1 (centres undefined)	-7.0	-5.7	-1.8	i	0.72	0.7	-4.1	-0.5	7.3	3.6
CC1(C)OC(=O)C(=Cc2ccc(-c3ccc(Cl)c(C(=O)O)c3)o2)C(=O)O1	2.8	2.7	1.4	i	0.7	-1.4	-6.7	2.2	-10.9	-5.8
COC(=O)c1ccc(C(=O)OC)c(NC(=O)COC(=O)CCOc2ccc(C)cc2)c1	19.4	9.4	0.7	i	0.685	-0.6	-1.4	-10.1	-15.0	4.4
COC(=O)[C@]1(C)N[C@H](CN(C)C(=O)Nc2ccccc2)[C@@H]2C(=O)N(Cc3ccccc3)C(=O)[C@@H]21	6.8	6.2	1.7	.	0.672	0.5	-3.6	2.1	.	-6.6
COc1cc2c(cc1CN1CCN(C(=O)c3cc(OC)c(OC)c(OC)c3)CC1)OCO2	7.2	3.4	3.2	i	0.698	-1.1	-11.2	2.9	-0.3	-7.6
CN1CCN(C(=O)/C(=C/c2cccs2)NC(=O)c2cccs2)CC1	.	.	.	.	0.678	0.0	.	4.4	-27.5	0.1
C=CCn1c(C)cc(/C([O-])=C(/C(=S)Nc2ccc(OC(F)F)cc2)[n+]2ccc(N(C)C)cc2)c1C	7.2	9.8	0.1	i	0.714	0.5	12.2	8.4	-8.0	-2.9
CCOC(=O)c1ccc(NC(=O)COc2coc(CN3CCc4ccccc43)cc2=O)cc1	-0.6	1.9	-1.3	.	0.686	-0.3	0.2	3.0	3.5	7.3
CCN1C(=S)N[C@@H](CCc2ccccc2)[C@H](C(=O)OC)[C@H]1C	0.2	-3.8	-1.3	i	.	0.1	-12.1	-3.7	-22.8	1.0
COCCNC(=O)C1CC(c2cccc(OC)c2)=NO1 (centres undefined)	19.1	3.6	-4.3	i	0.623	0.2	-4.9	7.0	-2.9	-6.8
CCN1CCN(CCCNC(=O)c2cc3c(s2)-c2ccccc2OC3)CC1	-6.8	-4.7	2.9	i	0.702	0.0	4.2	i	16.3	-6.9
CCCOc1ccccc1C1CC(=O)Nc2cc3c(cc21)OCO3 (centres undefined)	.	.	.	.	0.751	0.8	.	0.3	13.5	32.7
Cc1ccc2oc(-c3ccccc3)nc2c1	.	.	.	.	0.682	-5.9	.	1.0	7.8	-1.2
Cc1ccccc1C(=O)N1CCC(C(=O)NCc2ccc(Cl)cc2)CC1	5.9	13.3	-0.7	i	0.701	2.4	-1.2	0.6	2.0	.
CCOC(=O)Cn1nc(C)c(NC(=O)COc2ccc([N+](=O)[O-])c(C)c2)c1C	7.1	2.4	-0.9	i	0.673	0.0	-3.7	5.8	-0.9	1.6
COc1ccc(CCC(=O)NCCc2ccc(OC)c(OC)c2)cc1	0.7	4.7	0.4	i	0.668	1.9	0.7	2.8	-0.6	0.4
CC1(C)C(=O)Nc2ccccc2N1C(=O)COc1cc(Cl)ccc1Cl	-6.8	-44.7	-5.6	i	0.704	-0.5	-0.1	3.6	.	1.8
CC(C)OC(=O)CSc1nc2ccccc2s1	.	.	.	.	0.703	0.5	.	2.9	.	-3.9
COc1cccc(C2=NOC(C(=O)Nc3cc(C)on3)C2)c1OC (centres undefined)	-5.9	-1.2	-0.9	i	0.683	0.1	-15.4	3.5	-6.2	-1.5
COc1cc(OC)c(C2=NOC(C(=O)NCc3ccc4c(c3)OCO4)C2)cc1Cl (centres undefined)	.	.	.	.	0.66	-1.1	.	1.2	-7.8	-8.5
Cc1cccc(-n2nc3c(c2NC(=O)c2cc4ccccc4o2)CS(=O)(=O)C3)c1	-7.7	-17.9	-2.4	i	0.709	2.7	0.0	0.6	4.0	2.5
CCOc1cc(CN2CCN(c3cccc(C(F)(F)F)c3)CC2)ccc1O	.	.	.	.	0.683	-0.5	.	6.4	1.1	10.8

Source: PubChem
